D2 ag: Beta-Arrestin HTS for Positive Allosteric Modulators of the Human D2 Dopamine Receptor: Agonists; DiscoveRx PathHunter D2 beta-arrestin, luminescence, 90 min; 100% = 57 uM dopamine signal; activation, % (concentration not given with the values); hit rate 0.084% among 360,000; AID 624465, 2012; in the data active = activation above about 40%; inconclusive = about 15% to 40%; inactive = below about 15%; note: compound concentration not given in the record; the text of the record calls up to 30% inactive
Target sequence (P14416 whole entry, looked up): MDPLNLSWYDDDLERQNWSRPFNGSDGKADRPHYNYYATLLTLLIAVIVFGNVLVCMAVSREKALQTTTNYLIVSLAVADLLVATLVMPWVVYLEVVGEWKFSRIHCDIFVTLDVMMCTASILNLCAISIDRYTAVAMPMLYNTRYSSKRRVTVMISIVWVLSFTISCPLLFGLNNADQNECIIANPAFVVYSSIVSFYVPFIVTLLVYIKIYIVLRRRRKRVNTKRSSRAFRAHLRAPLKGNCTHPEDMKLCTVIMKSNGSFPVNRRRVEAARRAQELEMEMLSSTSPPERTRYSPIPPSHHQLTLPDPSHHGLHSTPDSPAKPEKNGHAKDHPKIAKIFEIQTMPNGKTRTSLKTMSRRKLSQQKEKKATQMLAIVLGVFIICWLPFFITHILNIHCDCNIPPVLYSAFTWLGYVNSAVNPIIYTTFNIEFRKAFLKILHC
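DiscoveRx PathHunter D2 beta-arrestin cells (2,100/well) attached overnight, then compound-stimulated 90 min at 37 C in HBSS/10 mM HEPES/0.1% Tween-20 buffer; beta-galactosidase complementation read by luminescence after 1 h at ambient temperature. Dopamine 57 uM final (EC100) as control.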
Sfp PPTase inh: qHTS Assay for Inhibitors of Bacillus subtilis Sfp phosphopantetheinyl transferase (PPTase) | Potency, µM, for the others: max response, negative = inhibition, actives largely listed as inhibitors | Biochemical Sfp PPTase activity, qHTS | AID 1490, 2009 | hit rate 3.5% among 310,000; active = well fitted inhibition curve with a large enough effect; inconclusive = small, poorly fitted or top-dose-only effect, or another doubt; inactive = no such curve, though single readings can be large or run the other way;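 note: the enzyme is Sfp with the accession as filed and its product quenches rhodamine fluorescence; potency is the fitted concentration of half-maximal effect; 0% = enzyme reaction without inhibitor and -100% = no enzyme wells; top concentration of the series not given in the record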
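Fluorescence-quenching assay with 15 nM Sfp, 5 uM rhodamine-CoA and 12.5 uM BHQ-2-labelled ybbR peptide in pH 7.6 Hepes/MgCl2 buffer. Enzyme was pre-incubated with compound for 15 min at room temperature. Rate was taken from the 30-min fluorescence change (525/598 nm).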
gsp ag: qHTS for Agonist of gsp, the Etiologic Mutation Responsible for Fibrous Dysplasia/McCune-Albright Syndrome: qHTS | gsp mutant cells, cAMP HTRF, 30 min; control for the full effect not named in the record | Potency, µM (top dose mostly 76.9 µM), for inactives: at the highest dose activation (cAMP increase), most hits filed as activators | hit rate 0.13% among 340,000 | AID 624287, 2012; active = well fitted activation curve with a large enough effect; inconclusive = small, poorly fitted or top-dose-only effect, or another doubt; inactive = no such curve, though single readings can be large or run the other way; cell line not stated here;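 note: phosphodiesterase inhibitor Ro 20-1724 added with compounds to block cAMP breakdown; potency is the fitted concentration of half-maximal effect; nearly all actives have a fitted effect of over 60% in size; about a fifth of the inactives were tested at one dose only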
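Cells in DMEM/10% FBS with G418 were pretreated with compounds in DMSO plus […] (300 uM stock) for 30 min at 37C. cAMP was measured by HTRF (cAMP-d2 plus anti-cAMP antibody-K) after 30 min at room temperature.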
PINK1 expr mod: A Quantitative High throughput Screen to Identify Chemical Modulators of PINK1 Expression | PINK1 immunofluorescence, high-content cytometry, 24 h | Potency, µM (doses to about 76.6 µM), without a hit: top-dose activation (PINK1 increase), usual class: activators | hit rate 0.2% among 410,000; active = well fitted activation curve with a large enough effect; inconclusive = small, poorly fitted or top-dose-only effect; inactive = flat fitted curve, though single readings scatter; cell line not stated here;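 note: potency is the fitted concentration of half-maximal effect; % of control where 0% means no effect; nearly all actives have a fitted effect of over 65% in size; a mitochondrial uncoupler was the plate control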
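Decision-based qHTS: stable cells, 24 h exposure to five compound concentrations, CCCP as control. Fixed cells stained for PINK1 plus nuclear, mitochondrial and cell markers, cytometer read.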
ClpP mod: qHTS Assay for Activators of ClpP; ATP-dependent Clp protease proteolytic subunit (Bacillus subtilis (strain 168)), P80244; hit rate 1.9% among 340,000; AID 651965, 2013; purified B. subtilis ClpP, FRET peptide cleavage, 20 min; Potency, µM (series often up to 57.5 µM), without a hit: at the top dose activity change, negative = active; active = well fitted falling curve with a large enough effect; inconclusive = small, poorly fitted or top-dose-only effect; inactive = no such curve, though single readings can be large or run the other way; note: potency is the fitted concentration of half-maximal effect; the source files actives as falling curves though it sought activators and does not explain the sign; nearly all actives have a fitted effect of over 65% in size; many hits overshoot -100%
Target sequence (P80244 whole entry, looked up): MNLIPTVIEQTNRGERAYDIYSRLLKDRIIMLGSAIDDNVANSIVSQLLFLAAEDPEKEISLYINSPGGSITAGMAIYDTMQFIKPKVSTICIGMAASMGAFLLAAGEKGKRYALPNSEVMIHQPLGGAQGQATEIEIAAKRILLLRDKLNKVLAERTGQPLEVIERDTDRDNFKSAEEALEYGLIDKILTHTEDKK
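FRET quenching reversal measured ClpP activation: 10 microg/mL B. subtilis ClpP at pH 8 with the FRET-FV decapeptide, read at 430 nm after 320 nm excitation. The 20-min minus 0-min signal was scaled between DMSO/no-enzyme wells and ADEP (5.8 microM final).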
gsp antag: qHTS for Antagonists of gsp, the Etiologic Mutation Responsible for Fibrous Dysplasia/McCune-Albright Syndrome: qHTS. Potency, µM (top dose mostly 76.9 µM), for inactives: top-dose activity change, negative = inhibition, most hits filed as inhibitors. hit rate 0.4% among 340,000. gsp-mutant cells, cAMP HTRF, 30 min; control for the full effect not named in the record; active = falling curve of any shape with a large fitted effect; inconclusive = falling curve, mostly with a smaller effect; inactive = flat or rising curve; cell line not stated here;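 note: intracellular cAMP measured with PDE inhibitor Ro 20-1724 present during compound exposure; potency is the fitted concentration of half-maximal effect; % is set by controls: 0 for no effect and ±100 for the full control effect; nearly all actives have a fitted effect of over 65% in size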
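Cells in G418 medium, seeded 16-24 h, 37C; buffer exchange to DPBS + 1 mM CaCl2, 0.5 mM MgCl2, 0.05% BSA; cpds in DMSO + […] (300 uM stock), 30 min 37C; HTRF cAMP detection.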
Menin-MLL FL inh: qHTS Assay for Inhibitors Targeting the Menin-MLL Interaction in MLL Related Leukemias: Competition With Fluorescein Labeled MLL-derived Peptide; Fluorescence polarization, fluorescein-MLL peptide displacement from menin; FP activity change, % at 61.4 µM; 290,000 tested, under 10 active; AID 1766, 2009; inconclusive = falling polarisation curve, or a change in total fluorescence; inactive = total fluorescence flat and polarisation flat or rising; no compound was filed as active; the % refers to the polarisation; negative = inhibition;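 note: % of control where 0% means no effect; inhibitors lower the polarisation; unlabelled MLL peptide was the positive control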
Active calls of the source: *; ? = inconclusive; · = not tested or not shown; [ ] = another dose, or the depositor's remark. Hits appear at their usual frequency. Share with any hit: about 5.1%.

SMILES	D2 ag	Sfp PPTase inh	gsp ag	PINK1 expr mod	ClpP mod	gsp antag	Menin-MLL FL inh
COc1ccc(CNC(=O)c2ccc(CS(=O)Cc3cccc(Cl)c3)o2)cc1 (stereo unspecified)	2.8	15%	-12%	-0.3%	-0.1%	-10%	-1.2
CC(C)CCNC(=O)c1c(CSc2ccc(Cl)cc2)noc1C(=O)NCc1ccccc1	-1.0	·	·	1.6%	-7.2%	10%	·
O=S(=O)(c1ccc(S(=O)(=O)N(Cc2ccc(F)cc2)C2CCCC2)cc1)N1CCCC1	-3.3	3%	20%	-1.7%	1.5%	-4%	-0.6
O=C(NN1CCOCC1)c1ccc(Br)s1	-3.7	9%	-6%[15.4 µM]	0.1%	-1.1%	7%	1.1
CC(=O)Nc1ccc(OCCOc2ccc(/C=C3/C(=N)N4C=CSC4=NC3=O)cc2)cc1	-6.8	11%	21%	14%	1.4%	12%	1.0
CCCN(CC(=O)Nc1ccccc1C)C(=O)c1ccc(N2CCCC2=O)cc1	1.6	·	-5%	1.1%	1.0%	0%	·
CCCN(CCC)S(=O)(=O)c1ccc2c(c1)CCCN2C(C)=O	-3.6	-7%	-15%	1.0%	-1.7%	3%	0.6
O=C(NC(=S)Nc1ncc(Br)cc1Br)c1cncc(Br)c1	-1.2	-20%	25%	0.1%[38.3 µM]	3.9%	-3%	-0.5
COc1ccc([C@H]2CC(=O)C=C(c3cccc4c3Oc3ccccc3S4)C2)cc1OC	-1.2	·	·	0.5%	-1.7%	-1%	·
Cc1c(C(=O)N2CCCCC2)sc(NC(=O)c2ccco2)c1C#N	-2.9	23%	12%	1.4%	-1.6%	-8%	11
CCOC(=O)c1cc(C)sc1NC(=O)CSc1nccn1C	-2.5	13%	-4%	-0.3%	-0.1%	-10%	·
CCOCCCNC(=O)C(c1ccc(Cl)cc1)N(Cc1ccc2c(c1)OCO2)C(=O)CNC(C)=O (stereo unspecified)	-2.0	23%	0%[15.4 µM]	0.0%	·	9%	0.2
O=C(Nc1cccnc1Cl)c1ccc(Cl)cc1	6.8	10%	-8%	-0.1%	·	0%	-1.2
CCC(=O)N1CCc2cc(S(=O)(=O)N3CCc4ccccc43)ccc21	-7.1	-3%	-9%[15.4 µM]	2.7%	2.1%	-11%	3.4
Cc1ccc(NC(=O)CSc2ncccn2)cc1S(=O)(=O)N1CCCCC1	-1.5	·	3%	5.4%	-2.3%	-5%	·
COc1cc2c(cc1OC)C(c1ccccc1C)CC(=O)N2 (stereo unspecified)	-3.2	0%	17%	-0.3%	·	2%	-5.6
O=c1c2c(O)cc(O)cc2oc2c(O)ccc(O[C@H]3O[C@@H](CO)[C@H](O)[C@@H](O)[C@@H]3O)c12	2.2	·	·	2.1%	0.2%	-4%	·
COc1cc(/C=C/C(=O)NNc2c(F)c(F)cc(F)c2F)ccc1OC(F)F	-7.3	10%	-25%	-1.0%	-0.9%	-4%	6.4
O=C(COC(=O)c1ccccc1SCC(=O)N1CCCC1)Nc1ccccc1OC(F)F	2.9	·	-86%	-1.8%	-2.3%	-14%	·
CCCCn1c(N)c(N(CCC(C)C)C(=O)c2cc(S(=O)(=O)N3CCOCC3)ccc2F)c(=O)[nH]c1=O	-0.7	·	?	0.4%	-0.1%	7%	·
CN1CCN(C2CN(Cc3cn(Cc4ccccc4C(F)(F)F)nn3)S(=O)(=O)C2)CC1 (stereo unspecified)	-5.8	·	·	3.0%	-4.3%	·	·
O=C(NNS(=O)(=O)c1ccc(C(F)(F)F)cc1)c1cnn(-c2ccccc2)c1C(F)(F)F	2.9	32%[activator]	14%	1.8%	0.3%	-6%	-0.2
CC(=O)N1CCN(c2ccc(S(=O)(=O)N3CCCCC3)cn2)CC1	-0.3	-4%	-50%[inhibitor]	2.5%	?	1%	5.5
Cc1nn(C)c(C)c1NC(=O)CSc1nc(-c2ccccc2Cl)nc2c1cnn2-c1ccccc1	-2.3	-1%	-22%	1.3%	-11%	-4%	2.2
Cc1ccc(C)c(S(=O)(=O)Nc2ccc(C(=O)N3CCC3)cc2)c1	-0.3	·	9%	1.7%	-2.4%	-6%	·
C[C@H]1CN([C@@H](C)CO)C(=O)CCCn2nncc2CO[C@H]1CN(C)C(=O)Nc1ccc2c(c1)OCO2	-2.6	·	?	1.3%	-2.8%	·	·
O=C1[C@@H]2Cc3c([nH]c4ccccc34)CN2C(=O)CN1CCCCCO	-1.4	4%	17%	0.1%	-7.4%	7%	0.0
COc1ccc(CNC(=O)CC[C@H]2O[C@@H](n3cc(C)c(=O)[nH]c3=O)C[C@@H]2O)cc1	-6.1	·	·	0.6%	-0.6%	·	·
CCOc1ccc(C2C(C(=O)c3ccc(C)o3)=C(O)C(=O)N2c2nc(C)c(C(=O)OC)s2)cc1 (stereo unspecified)	-4.5	50µM*	?	7.8%	-3.5%	-4%	32[activator]
CCCN1C(=S)SC(C)(C)C1/[N+]([O-])=C/c1cccnc1 (stereo unspecified)	-1.0	13%	-30%	-1.4%	-2.1%	8%	-0.2
CCn1c(CNC(=O)c2ccco2)nnc1SCC(=O)Nc1cc(C)c(C)cc1Br	-1.8	12%	27%	6.0%[38.3 µM]	0.9%	-7%	5.1
C=C(C)c1cccc(C(C)(C)NC(=O)N2CCN(C(=O)OCC)CC2)c1	3.4	·	-40%[inhibitor]	3.8%	0.4%	·	·
Cc1ccc(CN2CCCC(CO)(Cc3ccccc3C)C2)s1 (stereo unspecified)	-2.2	-3%	-33%[inhibitor]	7.7%	·	-5%	-0.3
CN(CC(=O)Nc1cccc(F)c1)C(=O)c1cc(=O)[nH]c2ccccc12	1.1	·	1%	-0.4%	?	7%	·
CCOC(=O)/C(=C\c1ccccc1)NC(=O)c1ccccc1	-4.3	-1%	-4%	1.0%	-1.6%	-6%	0.6
COc1ccc(OC)c(NC(=O)CSc2nnc(CCCO)n2-c2ccccc2)c1	0.4	9%	0%	1.7%[38.3 µM]	-1.8%	-3%	2.7
O=[N+]([O-])c1ccc(Nc2nccc(Cl)n2)cc1	-1.3	·	23%[15.4 µM]	-0.3%	·	?	·
COc1ccc(Oc2ncc3nc(-c4ccc(F)cc4)c(=O)n(Cc4cccs4)c3n2)cc1	·	6%	·	1.1%	·	·	-0.1
Nn1cnc2c([nH]c3ccccc32)c1=O	-1.8	-6%	2%	0.9%	?	4%	4.4
CCOc1ccc(OC(=O)NC(c2ccccc2)C(Cl)(Cl)Cl)cc1 (stereo unspecified)	0.8	1%	-1%	-1.8%	1.2%	-10%	-0.5
O=C(Nc1cccc2cccnc12)c1ccc(Cl)cc1	-3.0	-11%	-73%[inhibitor]	-0.5%	·	-13%	0.9
Cc1cc(Br)c(OCc2ccc(C(=O)N/N=C3\CC4CC=CC34)cc2)c(Br)c1 (stereo unspecified)	3.0	6%	-7%[15.4 µM]	10%	1.2%	-20%	0.3
Cc1cccc(CN2CCN(C3CN(Cc4cn(Cc5ccccc5C(F)(F)F)nn4)S(=O)(=O)C3)CC2)c1 (stereo unspecified)	4.5	·	·	0.7%	1.0%	·	·
C/C(=N\OC(=O)Nc1ccccc1)c1ccc(C)cc1	-3.1	·	?	5.5%	·	6%	·
CC(OC(=O)c1ccccc1N1C(=O)C2C3CCC(C3)C2C1=O)C(=O)c1ccccc1 (stereo unspecified)	-2.0	11%	-2%	4.1%	-1.8%	-1%	3.6
C[C@H](CO)N1C[C@H](C)[C@@H](CN(C)S(=O)(=O)c2ccc(C#N)cc2)OCc2cnnn2CCCC1=O	0.7	·	15%	2.7%	0.9%	·	·
CCn1c(CN2CCN(c3ccc(OC)cc3)CC2)nc2cc(S(=O)(=O)N(C)C)ccc21	0.3	-3%	1%	-0.1%	-0.9%	?	-1.1
COc1ccccc1CNC(=O)C1CCN(S(=O)(=O)c2c(C)noc2C)CC1	-3.8	14%	-46%[inhibitor]	-0.9%	-21%	-1%	2.1
NS(=O)(=O)c1ccc(NC(=O)CSc2nnc(-c3ccc(O)cc3)o2)cc1	1.2	-4%	9%	1.4%	·	1%	-1.7
N#Cc1ccc(CN(Nc2ccccc2)c2ccccc2)cc1	8.9	·	-42%[inhibitor]	14%	1.0%	·	·
COc1cc(C2CC(C(F)(F)F)n3ncc(C(=O)O)c3N2)cc(OC)c1OC (stereo unspecified)	-0.5	5%	?	·	-0.3%	-10%	1.7
CCCc1cc(CN2CCOCC2)c(O)c(CN2CCOCC2)c1O	0.3	·	-1%	-5.0%	1.0%	-2%	·
COc1ccc(Nc2c[nH]c(=O)[nH]c2=O)cc1	-5.9	·	-16%	-2.0%	2.2%	?	·
Cc1ccc(F)cc1NC(=O)CSCc1nc2sc(C)c(C)c2c(=O)[nH]1	-6.4	·	0%	-2.2%	-3.7%	-7%	·
O=C(c1ccc(N2CCCC2)c([N+](=O)[O-])c1)N1CCc2ccccc2C1	8.4	·	1%[15.4 µM]	4.1%	·	3%	·
CCn1nc(C(=O)OCC(=O)N2CCc3ccccc32)c2ccccc2c1=O	2.5	13%	7%	-0.6%	-1.5%	-13%	-0.3
CC(C)C(NC(=O)c1cccc(S(=O)(=O)N2CCOCC2)c1)C(=O)NCCc1ccccn1 (stereo unspecified)	1.0	10%	0%	-1.3%	0.5%	3%	-1.1
Cc1cccc(-n2c(C)cc(/C=N/n3cnnc3)c2C)c1	-0.6	-12%	1%	-2.5%	-1.7%	13%	-1.9
Cc1cc(Cl)ccc1OCC(=O)Nn1c(C)ccc1C	-3.8	1%	-6%	0.3%	0.9%	11%	3.7
O=C(CSc1ncccc1-c1nc2ccccc2[nH]1)N1CCN(c2ccccc2F)CC1	0.7	5%	-5%	?	-30%	?	?
